eIF4H FP inh = human eIF4H binding inhibitors, primary screen, translation initiation inhibitor project, biochemical, uHTS, fluorescence polarization; inhibition, % at 35 µM; Eukaryotic translation initiation factor 4H (Homo sapiens), Q15056; hit rate 0.94% among 290,000; AID 2012, 2009; eIF4H fluorescence polarization binding assay;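 active means 50% or more with normal probe brightness, or confirmed in later tests; inconclusive means above 50% with abnormal brightness, or retests that disagree; inactive means below 50% or failed in later tests; about a fifth of its hits are not listed in these tables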;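 further: calls also rest on retests at 20 µM and on dose response follow-up; 0% = protein and probe with vehicle and 100% = probe without protein; strong numbers were not always called active; many hits fall short of the cut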
CSC inhib = cancer stem cell viability inhibitors, primary screen, luminescence | hit rate 1.1% among 300,000 | inhibition, % at 7.5 µM | cancer stem cell-like cells viability;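 active means mean at 75% or more and at least half the replicates too; inconclusive means mean and replicates disagree; tested in HMLE shEcad cells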;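 further: 0% = median of negative and 100% = median of positive control wells; the first replicate is given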
Env fusion inh = inhibitors of HIV-1 Env-driven cell-cell fusion, primary screen, HeLa-JRFL effector, CEM21 target cells, luciferase | hit rate 1.1% among 360,000 | inhibition, % at 12.3 µM | AID 651610, 2012;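 active means mean replicate inhibition score of at least 50 and every replicate individually at or above 50; inconclusive means only one of the two criteria met; inactive means mean below 50 and not all replicates reaching 50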;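 further: 0% = plate neutral controls and 100% = maraviroc near 300 nM; one replicate is shown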
MT1-MMP act inh = blockers of MT1-MMP proenzyme processing, primary screen, HT1080 RFP-PRO-GFP cells, GFP/RFP fluorescence. hit rate 0.061% among 360,000. Matrix metalloproteinase-14 (Homo sapiens), P50281. GFP/RFP ratio change, % at 20 µM. GFP/RFP ratio fluorescence, overnight; percent of plate control window, DMSO zero. AID 651647, 2012;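 active means GFP/RFP ratio change of at least 30% with cell ATP level not reduced by more than half and red fluorescence within 50% of control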; further: strong numbers were not always called active
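Assay system: HT1080 cells carrying an RFP-PRO-GFP reporter | Dosing: Single dose of 20 µM compound, 1% DMSO final | Incubation: Cells overnight before dosing, compound overnight, 37 °C, 5% CO2 | Evaluation: GFP/RFP fluorescence ratio | Control set: DMSO and RFP-L50D-GFP cell wells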
Rce1 inhib = yeast Rce1p protease inhibitors, primary screen, biochemical, fluorescence, cell-free homogeneous; calls only; AID 2563, 2010; hit rate 0.27% among 290,000; yeast membranes, quenched prenylated peptide cleavage fluorescence; CAAX prenyl protease 2 (Saccharomyces cerevisiae (strain ATCC 204508 / S288c)), Q03530;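 active means fall in fluorescence gain of 50% or more versus controls, with final raw signal at or below 3038400; inconclusive means same 50% fall but final raw signal above 3038400; inactive means fall in fluorescence gain under 50%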;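 further: plate controls were neutral control wells for no effect and wells lacking membranes for full effect; tested at 10 µM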
Target sequence (Q03530 whole entry, looked up): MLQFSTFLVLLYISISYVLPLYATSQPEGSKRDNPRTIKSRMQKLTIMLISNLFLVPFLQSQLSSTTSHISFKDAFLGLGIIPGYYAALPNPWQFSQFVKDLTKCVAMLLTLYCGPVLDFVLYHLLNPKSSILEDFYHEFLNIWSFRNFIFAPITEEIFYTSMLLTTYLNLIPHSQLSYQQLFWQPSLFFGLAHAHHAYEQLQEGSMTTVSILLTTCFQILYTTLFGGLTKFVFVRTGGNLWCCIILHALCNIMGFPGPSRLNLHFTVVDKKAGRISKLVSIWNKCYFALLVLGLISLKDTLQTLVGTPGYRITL
PABP FP inh = PABP poly(A) RNA binding inhibitors, primary screen, biochemical, fluorescence polarization, uHTS; inhibition, % at 35 µM; hit rate 1% among 290,000; AID 2014, 2009;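 active means 50% or more with normal probe brightness, or confirmed in later tests; inconclusive means above 50% with abnormal brightness, or retests that disagree; inactive means below 50% or failed in later tests; about a fifth of its hits are not listed in these tables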;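 further: calls also rest on retests at 20 µM and on dose response follow-up; controls were probe without protein and protein plus probe with vehicle; some compounds called inactive have numbers as strong as hits; many hits fall short of the cut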
Target sequence (P11940 whole entry, looked up): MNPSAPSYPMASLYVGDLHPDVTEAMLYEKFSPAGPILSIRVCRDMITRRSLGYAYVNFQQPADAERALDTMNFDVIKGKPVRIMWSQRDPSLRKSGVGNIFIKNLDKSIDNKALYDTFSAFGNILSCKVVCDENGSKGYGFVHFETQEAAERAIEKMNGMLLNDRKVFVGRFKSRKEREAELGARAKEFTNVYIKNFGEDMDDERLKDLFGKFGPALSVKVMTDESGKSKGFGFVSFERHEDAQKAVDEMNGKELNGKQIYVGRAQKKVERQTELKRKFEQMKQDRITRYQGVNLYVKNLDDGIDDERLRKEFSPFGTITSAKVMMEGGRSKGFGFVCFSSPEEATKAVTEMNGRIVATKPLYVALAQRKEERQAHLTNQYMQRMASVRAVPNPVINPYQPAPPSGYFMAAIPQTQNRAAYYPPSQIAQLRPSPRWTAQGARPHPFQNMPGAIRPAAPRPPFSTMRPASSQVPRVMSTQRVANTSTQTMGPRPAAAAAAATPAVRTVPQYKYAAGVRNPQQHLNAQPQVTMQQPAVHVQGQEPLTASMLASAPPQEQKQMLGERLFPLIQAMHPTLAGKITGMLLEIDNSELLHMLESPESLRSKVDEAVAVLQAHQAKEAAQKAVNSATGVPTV
UUG fidelity = modulators of yeast start codon fidelity, primary screen, whole organism, S. cerevisiae, single point, plate reader; S. cerevisiae UUG-firefly luciferase reporter, luminescence/redox ratio; activity score, % at 18.7 µM; hit rate 0.13% among 350,000;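 active means replicate mean at a twofold rise or more, about +100% in these data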;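 further: firefly luciferase made from a UUG start codon reports start codon fidelity; reporter light over untreated wells divided by growth signal over untreated wells; some hits fall short of that in this replicate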
eIF4H FP inh retest = also measured in eIF4H FP inh; calls as there; inhibition, %; compound at 20 µM; confirmation average;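 mean of two retest wells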
PABP FP inh retest = second read-out of PABP FP inh, no call of its own (marks repeat the call); inhibition, %; compound at 20 µM; confirmation repeats;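 mean of two retest wells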
MT1-MMP act inh RFP = recorded beside MT1-MMP act inh, whose call it bears; RFP signal change, %; measured here: RFP expression control read;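 0 = vehicle wells; hits needed this value within 50% of zero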
The depositor's hits bear a star; i = inactive; ? = inconclusive; . = not tested or not shown; & = joins results of further samples.

SMILES	eIF4H FP inh	CSC inhib	Env fusion inh	MT1-MMP act inh	MT1-MMP act inh RFP	Rce1 inhib	PABP FP inh	UUG fidelity	others
O=C(NCc1ccccc1)c1cc(C2CCCCN2C(=O)c2ccccc2)on1 (stereo not drawn)	.	.	4	1	-1	.	.	-12
Cc1ccc2nc(C3CCN(S(=O)(=O)c4ccc5ccccc5c4)CC3)[nH]c2c1	8	13	?	-12	-15	i	6	-5
CC(=O)NC(c1ccc(F)c(F)c1)c1nc(-c2cccc(C(C)C)c2)cs1 (stereo not drawn)	.	.	8	-5	-3	.	.	-15
CSc1ccccc1C(=O)NCc1ccc(C)cc1	-2	-11	10	0	4	i	-6	.
COc1ccccc1CN1CCCCC1C(=O)O (stereo not drawn)	34	9	3	1	4	i	?	.
Nc1nc(SCc2nc(-c3ccccc3)no2)[nH]c(=O)c1-c1ccccc1	-3	.	.	.	.	i	-5	-3
CC(C)CNC(=O)C1CCN(c2ccc(S(=O)(=O)N3CCOCC3)cc2Cl)CC1	2	3	45	16	-6	i	-2	15
COc1ccc(OC)c(NC(=O)CSc2nn3c(=O)c(C)nnc3s2)c1	3	-7	22	-3	4	i	-3	-7
O=C1CCCN1CCCNCCCn1cnc2c(OCc3ccccc3)ncnc21	.	.	3	6	12	.	.	-14
COc1ccc(NC(=O)C2=NN(C3CCS(=O)(=O)C3)C(=O)CC2)cn1 (stereo not drawn)	9	-5	-16	-1	0	i	60	.	eIF4H FP inh retest=28;PABP FP inh retest=38
N#CCCn1cc(C(=O)Nc2ccccc2Br)c(-c2cc3ccccc3o2)n1	-4	1	1	-1	-5	i	0	.
Clc1ccc(-c2nc3ccc(Br)cn3c2Cc2ccsc2)cc1	.	.	-108	-1	1	.	.	-6
COc1ccc(C2=Nn3c(nnc3-c3cccnc3)SC2)cc1OC	0	-23	-10	3	-2	i	9	-6
CN(C)CC#CCC(O)(c1ccccc1)c1ccccc1	-3	-9	1	-3	-4	i	-4	.
O=C(CSc1nc2ccccc2nc1N1CCCCC1)Nc1ccc(F)cc1	-2	24	-134	-3	-7	i	-1	-20
Cn1c(=O)[nH]c(=O)c2c1[nH]c(=S)n2Cc1ccccc1	-3	-10	12	0	4	i	4	-19
COc1cc(/C=N/Nc2nc(N3CCCC3)nc(N3CCCC3)n2)ccc1OCc1ccccc1F	9	5	-5	-3	-7	i	6	-3
COC(=O)c1cncc(C)c1	3	-9	0	1	4	i	-6	.
CC[C@]1(C(=O)OC)[C@H]2C(=O)N(C)C(=O)[C@H]2[C@H]2CN=C(SCC3CC3)N21	.	.	-7	3	-1	.	.	-13
COc1ccc(-c2c/c(=N\c3nc(-c4ccccc4)c(C)s3)c3ccccc3o2)cc1O	27	80*	.	16	-5	i	26	-20
CCn1cc(CNC(=S)Nc2cccc(Cl)c2C)cn1	1	-6	5	3	0	i	61	-20	eIF4H FP inh retest=1;PABP FP inh retest=0
CCOc1cc(C(=O)N2CCN=C2SC)cc(OCC)c1OCC	6	-8	.	-3	-3	i	5	-9
Cn1cccc1-c1nc2ccccc2[nH]1	11	-7	-9	2	1	i	1	.
Cc1ccc(-c2cc(C(=O)N3CCN(c4ccccc4O)CC3)c3ccccc3n2)cc1	.	22	-7	-1	-1	i	.	-26
Cc1cc(C)c(NC(=S)NC(=O)c2ccc(-c3ccccc3)cc2)c(C)c1	-12	34	3	0	1	i	-13	-18
Cc1ccccc1N(C=O)c1ccccc1C	.	.	40	1	1	.	.	-7
Nc1scn[n+]1Cc1cccc2cccnc12	-2	6	11	1	3	i	16	.
Cn1c(Cn2c(=O)sc3ccccc32)nnc1SCC(=O)NC1CCCC1	0	-4	-56	3	3	i	-4	-1
COC(=O)C1=C(C)n2nnnc2NC1c1ccc(Cl)cc1 (stereo not drawn)	-13	-12	.	2	2	i	-3	3
COCCNC(=O)CN(C(=O)CCC(=O)Nc1ccccn1)c1ccc(OC)cc1	2	-10	-5	0	3	i	-1	-16
COc1cc(/C=N/NC(=O)c2ccc([N+](=O)[O-])cc2Cl)cc(Br)c1O	-4	0	-23	3	0	i	36	-9
O=C(CSc1nc(-c2ccco2)cc(C(F)(F)F)n1)N1CCN(Cc2ccccc2)CC1	3	-18	-1	0	0	i	10	-11
Oc1ccc(N=C/C=C/c2ccc(Br)cc2)cc1-c1nc2ccccc2s1	?	11	.	.	.	i	-1	.
CCCCCCN1C[C@H](O)[C@@H](n2cc(C3CC3)nn2)C[C@@H]1c1ccc(OC)cc1	.	.	-13	9	-2	.	.	-17
CCOC(=O)C1CCN(S(=O)(=O)c2cc(Br)cc3c2N(C(=O)C2CC2)CC3)CC1	-2	-10	-64	0	3	i	12	.
O=C(CCCc1ccccc1)NCc1cn2ccsc2n1	-2	-9	9	3	3	i	-1	-25
O=C(NCc1ccc(F)cc1)C1CCN(c2cnccn2)CC1	-6	.	-2	4	5	i	6	.
COC(=O)c1ccc2nc(-c3ccc(C#N)cc3)c(Cc3cccc(F)c3)n2c1	.	.	-44	-3	-1	.	.	9
Cn1c(CC(=O)Nc2ccccc2Cl)nnc1SCC(=O)NC1=NCCS1	-6	-10	1	4	7	.	0	-16
CSc1nc(N)nc2c1ncn2CC(=O)N1CCN(c2ccccn2)CC1	.	.	11	4	3	.	.	-9
COc1cc(OC)cc(-c2nc3ccccc3s2)c1	8	5	-171	-2	0	i	-4	-6
CCCC(=O)N1CCCC(c2cc(C(=O)NCc3cccnc3)no2)C1 (stereo not drawn)	.	.	43	-2	1	.	.	-21
O=C(NCCF)C1Nc2ccc(OC(F)(F)F)cc2C2C=CCC12 (stereo not drawn)	.	10	1	0	2	i	.	-5
CCc1ccc(C2CC(c3ccc(F)cc3)Nc3nc(N)nn32)cc1 (stereo not drawn)	-9	-16	-6	13	2	i	-11	-19
CC(C)(C)OC(=O)N1CCC(c2cc(=O)n3[nH]cc(C(=O)NC4CCCC4)c3n2)CC1	-11	-18	13	-1	3	i	8	-7
O=C(Cn1cnc2cc([N+](=O)[O-])ccc2c1=O)Nc1cccc2ccccc12	6	8	8	3	2	i	2	-9
Cc1ccc(NC2=NC(C(=O)Nc3ccc(C)c(C)c3)CC(=O)N2)cc1 (stereo not drawn)	5	-10	35	17	14	i	2	-23
CC1(C)CC(=O)C(C=NCCN2CCN(C(=S)NC3CCCCC3)CC2)=C(O)C1	0	-2	4	-7	0	i	-1	5
CC(C)C(=O)NCC(c1ccc2c(c1)OCO2)N1CCOCC1 (stereo not drawn)	-12	5	5	0	1	i	0	-7
Nc1nc(N2CCN(C/C=C/c3ccccc3)CC2)nc2ccccc12	-2	25	.	-4	1	.	3	-19
Carrying on:
SMILES	eIF4H FP inh	CSC inhib	Env fusion inh	MT1-MMP act inh	MT1-MMP act inh RFP	Rce1 inhib	PABP FP inh	UUG fidelity	others
Cc1ccc(C)c(S(=O)(=O)n2cnc3ccccc32)c1	-10	-4	-20	-4	-2	i	7	-19
CCOC(=O)c1cnc(-c2ccccc2)nc1Oc1ccc(Cl)cc1	-1	-9	.	-2	-3	i	-3	-17
CCOC(=O)N1CCN(C(=O)CSc2ccc(-c3ccncc3)nn2)CC1	-3	-4	2	2	3	i	1	.
Cc1c([N+](=O)[O-])c(N)nn1C	-14	-22	-2	-1	5	i	-2	.
Cc1ccc(NCc2nnc(SCC(=O)Nc3ncc(C)s3)n2Cc2ccco2)c(C)c1	-1	-8	-114	-2	-4	i	-11	-10
NC(CSC(c1ccccc1)(c1ccccc1)c1ccc2c(c1)OCO2)C(=O)O (stereo not drawn)	.	.	-12	-3	0	.	.	-17
COc1cc2c(cc1OC)C(c1cccnc1)CC(=O)N2 (stereo not drawn)	-8	-1	1	3	4	i	2	-8
CCC(=O)c1cn(CC(=O)Nc2ccccc2Cl)c2ccccc12	13	3	-27	4	-5	i	7	-14
Cc1ccccc1NC(=O)CNc1ccc(Cl)c(C(F)(F)F)c1	2	-11	-22	-1	-7	i	-6	-1
CC(C)(C)c1ccc(OCCC(=O)NC2=NCCS2)cc1	8	0	15	-5	-3	.	4	-24
CCOc1ccc(N2C(=O)Nc3ccc(Br)cc3C2(O)C(=O)NCCCN(C)C)cc1 (stereo not drawn)	3	-8	3	0	4	i	2	-11
Cc1ccc(S(=O)(=O)N(C)C[C@H]2OCCCC[C@H](C)Oc3ccc(NC(=O)Nc4cccc5ccccc45)cc3C(=O)N([C@@H](C)CO)C[C@H]2C)cc1	.	.	-71	2	2	.	.	2&-5
CCCCCCOc1ccc(/C(C)=N/NC2=NCCN2)cc1	-15	100*	-10	-1	-4	i	-9	-14
Cc1cc(C)cc(OCC(=O)OCC(=O)Nc2cc(C)nn2-c2ccccc2)c1	.	.	5	-3	-2	.	.	-7
Cc1nc(S(=O)(=O)N(C)c2ccccc2)c(C#N)c(C)c1Cl	7	-12	4	2	-4	i	1	-16
COc1ccc(CCNC(=O)CC2(CC3=NS(=O)(=O)c4ccccc4N3)CCCC2)cc1OC	.	-1	10	2	1	i	.	-11
Cc1cccc(N=C2N=C(N)c3ccccc32)c1	-6	-2	7	0	6	i	-7	-18
CC(=O)Nc1ccc(C(=O)COC(=O)C2CC3CCCC(C2)C3=O)cc1 (stereo not drawn)	.	1	-1	0	6	i	.	-10

Of the compounds above, these contain an aryl thioether with sulfur outside any ring:
SMILES	eIF4H FP inh	CSC inhib	Env fusion inh	MT1-MMP act inh	MT1-MMP act inh RFP	Rce1 inhib	PABP FP inh	UUG fidelity	others
CSc1ccccc1C(=O)NCc1ccc(C)cc1	-2	-11	10	0	4	i	-6	.
Nc1nc(SCc2nc(-c3ccccc3)no2)[nH]c(=O)c1-c1ccccc1	-3	.	.	.	.	i	-5	-3
COc1ccc(OC)c(NC(=O)CSc2nn3c(=O)c(C)nnc3s2)c1	3	-7	22	-3	4	i	-3	-7
O=C(CSc1nc2ccccc2nc1N1CCCCC1)Nc1ccc(F)cc1	-2	24	-134	-3	-7	i	-1	-20
Cn1c(Cn2c(=O)sc3ccccc32)nnc1SCC(=O)NC1CCCC1	0	-4	-56	3	3	i	-4	-1
O=C(CSc1nc(-c2ccco2)cc(C(F)(F)F)n1)N1CCN(Cc2ccccc2)CC1	3	-18	-1	0	0	i	10	-11
Cn1c(CC(=O)Nc2ccccc2Cl)nnc1SCC(=O)NC1=NCCS1	-6	-10	1	4	7	.	0	-16
CSc1nc(N)nc2c1ncn2CC(=O)N1CCN(c2ccccn2)CC1	.	.	11	4	3	.	.	-9
CCOC(=O)N1CCN(C(=O)CSc2ccc(-c3ccncc3)nn2)CC1	-3	-4	2	2	3	i	1	.
Cc1ccc(NCc2nnc(SCC(=O)Nc3ncc(C)s3)n2Cc2ccco2)c(C)c1	-1	-8	-114	-2	-4	i	-11	-10

Some of the compounds tested, so the mix of outcomes need not match the whole.
